GIV-Gai inh: GIV-Galpha-i interaction inhibition; P08753; Galpha-i3/FITC-GIV peptide fluorescence polarization, 90 min; hits give low values; scaled: aluminum fluoride 0%, vehicle 100%; percent of control (FP), % (test concentration not listed); hit rate 0.42% among 210,000; AID 1224905;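 active = replicate mean at 85% of control or lower, very high polarization wells dropped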;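 note: wells of about 15 µL received 100 nL stock; the first replicate is given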
Target sequence (P08753 whole entry, looked up): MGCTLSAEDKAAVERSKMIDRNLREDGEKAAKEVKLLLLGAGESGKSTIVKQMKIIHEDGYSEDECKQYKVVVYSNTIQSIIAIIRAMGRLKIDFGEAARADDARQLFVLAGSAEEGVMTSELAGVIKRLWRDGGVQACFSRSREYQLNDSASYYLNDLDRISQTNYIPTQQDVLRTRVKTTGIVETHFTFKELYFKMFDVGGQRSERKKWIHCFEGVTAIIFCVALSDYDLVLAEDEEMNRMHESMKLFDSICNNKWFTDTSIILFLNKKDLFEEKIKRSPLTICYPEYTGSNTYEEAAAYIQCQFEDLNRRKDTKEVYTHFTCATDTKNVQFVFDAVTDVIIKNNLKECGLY
* = called active by the depositor. Some of the compounds tested, so the mix of outcomes need not match the whole.

GIV-Gai inh	structure
108.4	Cc1cccc2c1N(C(=O)CN1C(=O)CCC1=O)C(C)(C)c1ssc(=S)c1-2
112.7	CCCCNC(=O)C1CCCN(c2cc(=O)n(C)c(=O)n2C)C1 (configuration not stated)
103.4	CN(CCc1noc(-c2ccc(C(=O)NCc3cccc(Cl)c3)cc2)n1)C(=O)c1ccccc1
103.8	CCOC(=O)c1cnn(-c2ccc(C(=O)N3CCC(C)CC3)cc2)c1N
104.6	Cc1cnc2c(c1)C(=Nc1ccccc1)c1cccc(C)c1-2
113.0	CCOc1ccc(N2C(=O)/C(=C\c3cc(OC)ccc3OC)S(=O)(=O)C2c2cccc([N+](=O)[O-])c2)cc1 (configuration not stated)
106.3	Cn1nc(C(=O)N2CCCC2)c2c1CCN(C(=O)CCC(=O)N1CCN(C3CCCCC3)CC1)C2
96.7	Cc1nc(-c2ccc(Cl)c(S(=O)(=O)N3CCCC(C(=O)N4CCN(C)CC4)C3)c2)no1 (configuration not stated)

Next entries follow:
GIV-Gai inh	structure
106.9	Cc1nc(-c2csc(S(=O)(=O)N3CCCC(C(=O)NCCN4CCOCC4)C3)c2)no1 (configuration not stated)
111.5	Cc1ccc(CSc2nc3cc(C(=O)N4CCC(C(N)=O)CC4)ccc3c(=O)n2-c2ccc(F)cc2)cc1
106.7	CCOC1OC(COC(C)=O)C(OC(C)=O)C(OC(C)=O)C1NC(C)=O (configuration not stated)
106.1	COC(=O)c1ccc(NC(=O)/C(=C\c2ccc3c(c2)OCO3)NC(=O)c2ccccc2OC)cc1
100.8	Cc1ccc(CNC2=NCCNC23CCN(S(=O)(=O)c2cc(C)cc(C)c2)CC3)cc1
112.5	COCCNC(=O)c1ccc2c(=O)n(Cc3ccco3)c(SCC(=O)Nc3ccc(C)cc3)nc2c1
105.2	CC(C)(C)C1CCc2c(sc3c2C(=O)NC(c2ccc(Cl)cc2)N3)C1 (configuration not stated)
100.5	O=C1c2ccccc2C(=O)c2cc(OCC(O)Cn3c4ccccc4c4ccccc43)ccc21 (configuration not stated)

(cont.)
GIV-Gai inh	structure
111.4	COc1ccc(O[C@@H]2O[C@H](COC(C)=O)[C@@H](OC(C)=O)[C@H](OC(C)=O)[C@H]2NC(C)=O)cc1
107.0	O=C(NCC1CCCO1)N1CCN(c2nc3cc(Br)ccc3n3cccc23)CC1 (configuration not stated)
115.3	CCc1nnc2ccc(NC(C)C)nn12
109.2	CC12CC(c3c(ccc4ccccc34)O1)C(c1nc3ccccc3s1)C(=O)N2 (configuration not stated)
101.4	FC(F)(F)c1cccc(-c2nnc3ccc4ccccc4n23)c1
100.9	CCOC(=O)c1c(NC(=O)C(C)Sc2nnc(CNC(=O)c3cccs3)n2C2CCCCC2)sc2c1CCC2 (configuration not stated)
112.6	COC1=NC(C(F)(F)F)(C(F)(F)F)N=C(N2CCCCC2)O1
110.3	Cc1ccccc1-n1nc2c(c1NC(=O)c1ccc(S(=O)(=O)N3CCCCC3)cc1)CS(=O)(=O)C2

Other records.
GIV-Gai inh	structure
105.5	O=C(CSc1n[nH]c(-c2ccncc2)n1)c1ccc(F)cc1
106.7	O=S(=O)(c1ccc2c(c1)CCC2)N1CCC(c2noc(-c3ccc(F)cc3)n2)CC1
103.8	CCOC(=O)CC1(NC(=O)N2CCCC2c2cc(C)no2)CCCCC1 (configuration not stated)
98.5	O=C(NC1CCCC1)C1CCN(c2nccnc2Sc2ccccc2)CC1
108.2	CCCCN1CCN(S(=O)(=O)c2ccc(-c3nnc(C4CCCC4)o3)o2)CC1
108.6	CCOc1cc(CN2CCCC2c2cc(C)no2)ccc1OC(C)C (configuration not stated)
100.0	Cc1cc(=O)oc2c1ccc1occ(Nc3cccc4ccccc34)c12
108.2	CC(C)NC(=O)CSc1nc(N2CCc3ccccc3C2)nc2ccccc12

Next results.
GIV-Gai inh	structure
109.0	COc1ccc(OC)c(C2NC(=S)NC(C)=C2C(=O)Nc2ccccc2)c1 (configuration not stated)
101.6	O=C(NC1COc2ccccc2C1)N1CCN(C2CCCCC2)CC1 (configuration not stated)
104.3	COc1ccc(OC)c(C2NC(=S)NC(C)=C2C(=O)Nc2ccc(C)cc2C)c1 (configuration not stated)
119.1	COc1cc2c(cc1OC)C(Nc1ccc(Br)cc1)=NC1(CCCC1)C2
100.8	COc1cc(NC(=O)CSC2=C(C#N)C(c3ccc(C)o3)C3=C(CCCC3=O)N2)c(OC)cc1Cl (configuration not stated)
110.1	Cc1cc(N2CCCC2)nc(N2CCN(C(=O)CC3CCCC3)CC2)n1
104.8	Fc1ccccc1Nc1nc2nonc2nc1Nc1ccccc1
108.0	COc1ccccc1-n1c2nc(=O)[nH]c(=O)c-2cc2ccccc21

The listing continues:
GIV-Gai inh	structure
114.9	Cc1ccc(/C(O)=C2\C(=O)C(=O)N(c3nncs3)C2c2ccc(C(C)(C)C)cc2)cc1 (configuration not stated)
101.5	Cc1ccc(-c2cnc(N3CCCC(C(=O)NC(C)C)C3)nc2)cc1 (configuration not stated)
104.2	O=C(NCc1ccccc1)c1ccc2c(=O)n(CCc3c[nH]c4ccccc34)c(=S)[nH]c2c1
106.2	O=S(=O)(c1ccc(F)cc1)N1CCCN(c2nc3cccnc3s2)CC1
106.1	COC(=O)C1=C(C(=O)OC)SC2(S1)C(C(=O)OC)=C(C(=O)OC)SC1=C2c2cc(C)ccc2N(C(=O)Cc2ccccc2)C1(C)C
100.2	COc1ccccc1CNC(=O)c1sc2nc(C)nc(N3CCCCC3C)c2c1C (configuration not stated)
98.5	CCOC(=O)c1c(NC(=O)C(C)Sc2nnc(CNC(=O)c3ccco3)n2C2CCCCC2)sc2c1CCCCC2 (configuration not stated)
103.5	CCS(=O)CCSc1nc(-c2cccs2)cc(-c2ccccc2)c1C#N (configuration not stated)

Remaining list, next part:
GIV-Gai inh	structure
104.8	COc1ccccc1NC(=O)C1=C(C)NC(SCC(=O)Nc2ccccc2)=C(C#N)C1c1ccccc1 (configuration not stated)
109.4	COc1ccc(-c2nc(-c3cc(OC)ccc3OC)[nH]c2-c2ccc(OC)cc2)cc1
115.8	COc1ccc(N2C(=O)CSC23C(=O)Nc2ccccc23)cc1Cl (configuration not stated)
100.5	CCOC(=O)C1=C(C)NC2=C(C(=O)C(C(=O)OCC)C(c3cccc(OC)c3)C2)C1c1ccccc1Cl (configuration not stated)
108.7	O=c1c2sc(=S)n(Cc3ccco3)c2nc(SCc2cc(=O)n3cc(Cl)ccc3n2)n1-c1ccccc1
110.5	CCc1onc(C)c1C1CCCN1Cc1ccccc1F (configuration not stated)
102.7	COc1ccccc1NC(=O)CSc1ncccc1C(=O)NCc1ccc(Cl)c(Cl)c1
102.7	Cn1c(N2CCC(C(=O)NC3CCCCC3)CC2)cc(=O)n(C)c1=O

More structures:
GIV-Gai inh	structure
109.0	CC1CCc2oc3ccc(NS(=O)(=O)c4cccc([N+](=O)[O-])c4)cc3c2C1 (configuration not stated)
97.6	CS(=O)(=O)Nc1ccc(C2(C(=O)N3CCN(c4ccccc4)CC3)CCCCC2)cc1
101.1	Cn1cc(S(=O)(=O)N2CCC(C(=O)NCc3ccccn3)CC2)cc1C(=O)N1CCCC1
95.4	CCc1nccn1Cc1noc(COC)n1
104.3	O=c1c2cc3c(cc2nc(SCc2nc(-c4ccccc4)no2)n1Cc1ccccc1)OCO3
108.0	CCCn1c(=O)c(C(=O)Nc2nc(CC(=O)OCC)cs2)c(O)c2ccccc21
114.5	O=C1CC(n2nnn(C3CCCCC3)c2=S)C2COC1O2 (configuration not stated)
103.8	O=C(NCc1ccc2c(c1)OCO2)c1ccc(NC(=O)c2nsc3ccccc23)cc1

Continuation.
GIV-Gai inh	structure
99.5	COC(=O)c1ccc(NC(=O)N2CCN(Cc3cc(=O)n4nc(-c5ccccc5)sc4n3)CC2)cc1
114.0	O=C(CSc1nc2cc(C(=O)NCC3CCCO3)ccc2c(=O)n1CC1CCCO1)Nc1nccs1 (configuration not stated)
113.1	Cc1nn2c(S(=O)(=O)NCc3ccco3)c(C)nc2s1
96.5	Nc1ccc(-c2nnc3n2CCCCC3)cc1
99.5	O=C(NCc1ccc(F)c(Cl)c1)C1CCN(c2ncccc2-c2nc(-c3ccccc3)no2)CC1
99.6	COc1cc(/C=C2\C(=O)N(c3ccc(S(N)(=O)=O)cc3)N=C2C)ccc1OCc1ccccc1
111.1	CC(=O)C1=NN(c2ccccc2)C2(S1)SC(c1ccc(C)cc1)(c1ccc(C)cc1)c1ccccc12 (configuration not stated)
116.4	COc1ccc(CCNC(=O)CCCn2c(SCC(=O)NCc3ccco3)nc3ccccc3c2=O)cc1OC

Next section:
GIV-Gai inh	structure
107.9	CCOc1cc(Br)c(C=C2C(=O)N(C)C(=S)N(C)C2=O)cc1OC
100.9	Cc1cc(SC(C)C(=O)N2CCc3ccccc32)nc2ccc(S(=O)(=O)N(C)C)cc12 (configuration not stated)
98.8	CC1(C)SC(=S)N(/N=C/c2ccccc2)C1N(O)C(=O)NC1CCCCC1 (configuration not stated)
108.8	CCOc1ccccc1NS(=O)(=O)c1cc2c(cc1Cl)NC(=O)CO2
107.4	Cc1cc(NC(=O)CN(C)S(=O)(=O)c2cc3c(cc2C)NC(=O)C(C)O3)no1 (configuration not stated)
103.0	COc1ccc(-c2nn3c(=O)c(NC(=O)c4ccc(C(C)(C)C)cc4)cnc3o2)cc1
104.2	COc1ccccc1-c1nnc2c(C(=O)Nc3cccc(C)c3)cccn12
109.0	CCN(CC)S(=O)(=O)c1ccc(C(=O)Nc2c3c(nn2-c2ccc(OC)cc2)CS(=O)(=O)C3)cc1

(next part)
GIV-Gai inh	structure
111.6	CSC1=C(C#N)C(c2cccs2)C2=C(CCCC2=O)N1 (configuration not stated)
109.1	O=C1C(c2ccccc2)=C(OC(=O)c2ccccc2[N+](=O)[O-])c2ccccc21
103.1	O=C(c1cc2n(n1)C(C(F)(F)F)CC(c1ccc3c(c1)OCO3)N2)N1CCN(c2ccccc2Cl)CC1 (configuration not stated)
105.3	COc1cccc(CNC(=O)CSc2nc(N3CCc4ccccc4C3)nc3ccccc23)c1
99.6	COC(=O)C1=C(C(=O)OC)SC(=C2C(=S)C(C)(C)N(C(=O)c3ccccc3Cl)c3ccc(C)cc32)S1
108.0	COc1ccc(CCn2c(-c3cc(C)ccc3C)csc2=Nc2cccc(C(F)(F)F)c2)cc1OC
102.0	O=C(CSc1nc(=O)n(Cc2ccncc2)c2c1CCC2)N1CCCCC1
105.8	O=C(c1cc2nc(-c3cccs3)cc(C(F)(F)F)n2n1)N1CCN(C(=O)c2ccco2)CC1

Next part
GIV-Gai inh	structure
99.8	Cc1c(S(=O)(=O)NCc2ccc3c(c2)CCN3C(=O)c2ccc(Cl)cc2)cnn1C(F)F
102.4	O=C(Nc1cc(Cl)ccc1Oc1ccc(Cl)c2ccccc12)c1cc(Cl)cc(Cl)c1O
104.5	CC(=O)n1c2c(c3ccccc31)OC(N)=C(C#N)C2c1cccnc1 (configuration not stated)
109.8	COCCNc1cc(-n2nc(C)cc2C)ncn1
106.8	CCc1ccc(C2=C(C)C(N3CCCN(S(=O)(=O)CC)CC3)=NS2(=O)=O)cc1
103.0	CC(C)Cc1ccc(S(=O)(=O)NCc2ccc3c(c2)CCN3C(=O)c2ccc(F)cc2)cc1
105.3	CCc1cc(C2CCCN2S(=O)(=O)c2ccccc2)on1 (configuration not stated)
106.4	Cc1onc(-c2ccccc2Cl)c1C(=O)Nc1ccc(Nc2ccccc2)c2c1C(=O)c1ccccc1C2=O

Continuation.
GIV-Gai inh	structure
110.7	CC(C)(C)C(=O)[C@@H]1[C@@H](c2ccccc2)C(C#N)(C#N)[C@H]2C=Cc3ccccc3N12
132.7	Cc1ccc(-c2noc(-c3cccn4c(=O)n(Cc5ccc6c(c5)OCO6)nc34)n2)cc1
98.3	CC(C)CCNC(=O)N1CCC(N2CCN(Cc3cccc(F)c3)C(=O)C2=O)CC1
100.3	Cc1cccc(CNC(=O)c2ccc(-c3nc(CCN(C)C(=O)Nc4ccccc4)no3)cc2)c1
110.9	COCC(=O)N1CCCC(C(=O)N2CCOCC2)C1 (configuration not stated)
103.0	COc1ccc(-c2cc(N3CCN(C(=O)Nc4cccc(C)c4C)CC3)ncn2)cc1
104.4	CCn1cc(S(=O)(=O)N2C[C@H]3CN(S(=O)(=O)c4cccc(F)c4)C[C@@H](C2)O3)cn1
98.9	CCOC(=O)c1c(-c2ccc(OC)c(OC)c2)csc1NC(=O)CSc1nnc2cc(C)c3ccccc3n12

New compounds follow:
GIV-Gai inh	structure
106.0	c1coc(CNc2ncnc3c2oc2ccccc23)c1
102.4	CN(C)C(=O)N1CCN(C)c2ccccc21
100.1	Cc1nc2cccnc2n1CCN1CCN(C(=O)NC2CCCCC2)CC1
96.5	Cc1oc(C2CCN(C(=O)C(C)(C)C)CC2)nc1C(=O)N1CCCC1
104.0	O=C1c2ccccc2C(=O)C12OC(c1ccc(Br)cc1)C1(C(=O)c3ccccc3C1=O)C2c1ccc(F)cc1 (configuration not stated)
187.9	CCOC(=O)C1=C(C)N=c2s/c(=C/c3ccc(N4CCN(C)CC4)o3)c(=O)n2C1c1ccc(OC)c(OC)c1 (configuration not stated)
109.8	O=C(O)c1ccc(-c2nc(-c3ccc4c(c3)C(=O)c3ccccc3-4)c(-c3ccccc3)[nH]2)cc1
107.1	COC(=O)c1ccc(/C=C2\SC(N3CCN(C)CC3)=NC2=O)cc1
108.4	CCc1onc(C)c1C1CCCN1Cc1cn[nH]c1-c1cc(OC)ccc1OC (configuration not stated)
104.1	Cc1ccc(NC(=O)Nc2ccccc2OCc2cc(=O)n3cccc(C)c3n2)cc1C
106.4	O=c1ccc(-c2cccc(Cl)c2)nn1CCc1nc(-c2ccc(F)cc2)no1

Sorted by formula weight (descending): part of the list above.
GIV-Gai inh	structure
116.4	COc1ccc(CCNC(=O)CCCn2c(SCC(=O)NCc3ccco3)nc3ccccc3c2=O)cc1OC
108.0	COc1ccc(CCn2c(-c3cc(C)ccc3C)csc2=Nc2cccc(C(F)(F)F)c2)cc1OC
104.2	O=C(NCc1ccccc1)c1ccc2c(=O)n(CCc3c[nH]c4ccccc34)c(=S)[nH]c2c1
104.4	CCn1cc(S(=O)(=O)N2C[C@H]3CN(S(=O)(=O)c4cccc(F)c4)C[C@@H](C2)O3)cn1
109.4	COc1ccc(-c2nc(-c3cc(OC)ccc3OC)[nH]c2-c2ccc(OC)cc2)cc1
100.1	Cc1nc2cccnc2n1CCN1CCN(C(=O)NC2CCCCC2)CC1

Bioassay records as filed in PubChem BioAssay.
